Compound activity: PubChem, several laboratories
Mtb bLac sens = beta-lactam sensitization of Mtb H37Rv; M. tuberculosis H37Rv growth with meropenem, percent inhibition; hits of this screen are not shown here; inhibition, % at 25 µM; 0.27% of 330,000 active; AID 434955;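 active = about 74% or more and at least 40 points above the plate without the antibiotic, then above 30% in a dose series; inconclusive = first-round hits that could not be retested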;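 also: growth measured after seven days incubation then overnight dye step; 0% = bacteria only wells and 100% = bacteria with antibiotic; twin plates without the antibiotic show which effects depend on it; some results filed as inactive read as strong as hits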
Arbovirus anti = antivirals against arbovirus infection; arbovirus infection cell-based antiviral screen; inhibition, % at 10 µM; 0.37% of 200,000 active;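 active = inhibition from about 30%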;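 also: bluetongue infection of BSR cells; cell survival read as ATP light after 72 h; 0% = infected wells without compound and 100% = uninfected wells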
YopH PTP inh = YopH (Yersinia) phosphatase inhibition; fluorescence Ex485/Em525; 0.16% of 140,000 active; inhibition, %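 (about 10 µM by stock and volumes)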;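 active = inhibition of 50% or more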;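 also: controls were vehicle for no effect and minimum signal wells for full effect; inactives centre near -20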
RecA intein inh = inhibitors of M. tuberculosis RecA intein splicing | AID 2221 | cell-free RecA intein splicing, fluorescence | inhibition, %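 (about 9 µM by stock and volumes)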 | P9WHJ3 | 0.75% of 290,000 active; in the data active = inhibition above about 30%; inconclusive = no clear call, values can overlap the other calls;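 also: 0% = vehicle wells and 100% = reference inhibitor control wells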
Target sequence (P9WHJ3 whole entry, looked up): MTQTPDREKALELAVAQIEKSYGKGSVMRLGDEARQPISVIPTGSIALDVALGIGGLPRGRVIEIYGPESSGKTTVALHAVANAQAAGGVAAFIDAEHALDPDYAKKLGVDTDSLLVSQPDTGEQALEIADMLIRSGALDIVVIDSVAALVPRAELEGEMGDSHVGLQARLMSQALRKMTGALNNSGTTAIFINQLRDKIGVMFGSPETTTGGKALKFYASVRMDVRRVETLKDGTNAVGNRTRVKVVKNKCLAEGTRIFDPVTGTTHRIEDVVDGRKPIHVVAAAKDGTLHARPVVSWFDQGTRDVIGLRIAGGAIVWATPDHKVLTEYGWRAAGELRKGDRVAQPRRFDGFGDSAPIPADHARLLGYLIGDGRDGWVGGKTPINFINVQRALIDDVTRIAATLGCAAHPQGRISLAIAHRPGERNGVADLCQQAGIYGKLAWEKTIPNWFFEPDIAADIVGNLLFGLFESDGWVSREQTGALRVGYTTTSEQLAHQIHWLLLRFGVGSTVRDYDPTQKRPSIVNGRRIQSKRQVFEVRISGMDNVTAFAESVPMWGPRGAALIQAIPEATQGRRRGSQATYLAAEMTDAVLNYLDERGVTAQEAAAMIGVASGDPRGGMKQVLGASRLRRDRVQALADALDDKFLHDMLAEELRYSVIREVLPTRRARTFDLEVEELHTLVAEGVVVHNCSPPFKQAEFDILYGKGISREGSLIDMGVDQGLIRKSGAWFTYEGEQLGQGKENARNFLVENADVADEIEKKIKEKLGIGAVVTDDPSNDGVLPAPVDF
Mtb H37Rv = M. tuberculosis H37Rv growth inhibitors, H37Rv strain (AID 1626); inhibition, % at 10 µM, or IC50 in µM where a hit was titrated; M. tuberculosis H37Rv growth inhibition; higher % means a stronger effect; 0.95% of 220,000 active;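 active = confirmed in a dose series; inconclusive = inhibition above 80% but not taken into the dose series; inactive = below 80% or under 30% at every dose of the series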;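 also: bacteria incubated seven days before Alamar blue readout; 0% = bacteria only wells and 100% = bacteria with antibiotic wells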
Arbovirus anti repeat = further read-out of Arbovirus anti, marked with its call; inhibition, %; measured here: 10K subset replicate screen; many hits read low in the repeat;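 first of two repeat runs on a subset; 0% = infected and 100% = uninfected wells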
* = called active by the depositor; ? = inconclusive; . = no result given; & = joins results of further samples. A portion of the library; count on the stated rates, not on these rows.

Sample of the layout (23 entries):
SMILES	Mtb bLac sens	Arbovirus anti	YopH PTP inh	RecA intein inh	Mtb H37Rv	others
COc1cccc(NC(=O)N2CCCC2C(=O)Nc2ccc3c(c2)OCO3)c1 (stereo unspecified)	1	2	-21	.	5%
Nc1c([N+](=O)[O-])c(=O)oc2ccccc12	2	19	.	0.5	-2%
Cc1cccc(N2CCN(C(=O)Cn3ccc4ccccc4c3=O)CC2)c1C	2	0	-20	1.4	14%
NC(=O)NC(=O)CSc1nc(C2CCCCC2)n(-c2ccccc2)n1	-2	-11	-1	1.7	-9%
CC1(C)C(C=C(Cl)Cl)C1C(=O)N(Cc1cccc(Cl)c1)C1CCS(=O)(=O)C1 (stereo unspecified)	5	-20	-40	6.1	7%
CCCCC(CCC(=O)O)(C(=O)OCC)c1csc(Nc2ccc(OCC)cc2)n1 (stereo unspecified)	-9	.	.	2.8	6%
CC(C)(C)n1ncc2c(=O)n(Cc3ccc(Cl)c(Cl)c3)cnc21	-3	-1	.	1.2	-6%
CCOC(=O)/C(=N/Nc1ccccc1)N1CCCc2ccccc21	-3	3	-35	-2.3	9%
COc1cc(/C=C2\SC(=O)N(c3ccc(Cl)cc3)C2=O)cc([N+](=O)[O-])c1O	.	57*	.	.	44%
CCCCc1ccc(NC(=O)CC(C)(C)C)cc1	-6	8	-19	2.8	6%
Cc1cc(NC(=O)c2cc(-c3cccnc3)nc3c(C)c(C)ccc23)no1	-7	-2	-21	1.4	13%
O=C(Nc1ccccc1C(=O)Nc1ccccc1C(=O)NCc1ccco1)c1ccco1	2	-10	9	3.2	3%
CC1=CC(c2ccccc2)n2nc(N3C(=O)c4ccccc4C3=O)nc2N1 (stereo unspecified)	0	2	25	-2.1	-20%
Cc1c(NS(=O)(=O)c2cc(Br)cc3c2N(C(=O)C2CC2)CC3)c(=O)n(-c2ccccc2)n1C	-3	-3	.	1.5	-5%
COc1cccc(Nc2nc(NCC3CCCO3)c3ccccc3n2)c1 (stereo unspecified)	94	-46	-5	15	7%
COc1ccc(N2CCN(C(=O)CN(Cc3ccc(Cl)cc3)S(C)(=O)=O)CC2)cc1	-3	6	-2	-5.0	6%
Cn1c(-c2csc(-c3cccc(C(F)(F)F)c3)n2)n[nH]c1=S	6	-3	.	1.6	4%
CCc1c(C)nc2ncnn2c1NCc1cccs1	8	9	-19	3.8	-12%
COc1ccc(C2SCC(=O)N2CCc2ccc(OC)c(OC)c2)cc1 (stereo unspecified)	4	-10	.	-0.9	-2%
Cc1ccc2nc(SCC(=O)Nc3ccc4sc(C)nc4c3)c(C#N)cc2c1	11	-1	-14	0.4	-6%
CCn1c2ccccc2c2cc(NC(=O)c3cc(OC)cc(OC)c3)ccc21	-2	-22	-9	4.2	12%
Cn1c(=O)c2c(nc(Br)n2Cc2nnc(N)s2)n(C)c1=O	38	.	.	-5.0	-5%
COc1ccc(/C=N/OC/C(O)=C(\C#N)c2nc3ccccc3[nH]2)cc1	-14	-5	-5	-7.5	1%

Results, from the start:
SMILES	Mtb bLac sens	Arbovirus anti	YopH PTP inh	RecA intein inh	Mtb H37Rv	others
COc1cccc(NC(=O)N2CCCC2C(=O)Nc2ccc3c(c2)OCO3)c1 (stereo unspecified)	1	2	-21	.	5%
Nc1c([N+](=O)[O-])c(=O)oc2ccccc12	2	19	.	0.5	-2%
Cc1cccc(N2CCN(C(=O)Cn3ccc4ccccc4c3=O)CC2)c1C	2	0	-20	1.4	14%
NC(=O)NC(=O)CSc1nc(C2CCCCC2)n(-c2ccccc2)n1	-2	-11	-1	1.7	-9%
CC1(C)C(C=C(Cl)Cl)C1C(=O)N(Cc1cccc(Cl)c1)C1CCS(=O)(=O)C1 (stereo unspecified)	5	-20	-40	6.1	7%
CCCCC(CCC(=O)O)(C(=O)OCC)c1csc(Nc2ccc(OCC)cc2)n1 (stereo unspecified)	-9	.	.	2.8	6%
CC(C)(C)n1ncc2c(=O)n(Cc3ccc(Cl)c(Cl)c3)cnc21	-3	-1	.	1.2	-6%
CCOC(=O)/C(=N/Nc1ccccc1)N1CCCc2ccccc21	-3	3	-35	-2.3	9%
COc1cc(/C=C2\SC(=O)N(c3ccc(Cl)cc3)C2=O)cc([N+](=O)[O-])c1O	.	57*	.	.	44%
CCCCc1ccc(NC(=O)CC(C)(C)C)cc1	-6	8	-19	2.8	6%
Cc1cc(NC(=O)c2cc(-c3cccnc3)nc3c(C)c(C)ccc23)no1	-7	-2	-21	1.4	13%
O=C(Nc1ccccc1C(=O)Nc1ccccc1C(=O)NCc1ccco1)c1ccco1	2	-10	9	3.2	3%
CC1=CC(c2ccccc2)n2nc(N3C(=O)c4ccccc4C3=O)nc2N1 (stereo unspecified)	0	2	25	-2.1	-20%
Cc1c(NS(=O)(=O)c2cc(Br)cc3c2N(C(=O)C2CC2)CC3)c(=O)n(-c2ccccc2)n1C	-3	-3	.	1.5	-5%
COc1cccc(Nc2nc(NCC3CCCO3)c3ccccc3n2)c1 (stereo unspecified)	94	-46	-5	15	7%
COc1ccc(N2CCN(C(=O)CN(Cc3ccc(Cl)cc3)S(C)(=O)=O)CC2)cc1	-3	6	-2	-5.0	6%
Cn1c(-c2csc(-c3cccc(C(F)(F)F)c3)n2)n[nH]c1=S	6	-3	.	1.6	4%
CCc1c(C)nc2ncnn2c1NCc1cccs1	8	9	-19	3.8	-12%
COc1ccc(C2SCC(=O)N2CCc2ccc(OC)c(OC)c2)cc1 (stereo unspecified)	4	-10	.	-0.9	-2%
Cc1ccc2nc(SCC(=O)Nc3ccc4sc(C)nc4c3)c(C#N)cc2c1	11	-1	-14	0.4	-6%
CCn1c2ccccc2c2cc(NC(=O)c3cc(OC)cc(OC)c3)ccc21	-2	-22	-9	4.2	12%
Cn1c(=O)c2c(nc(Br)n2Cc2nnc(N)s2)n(C)c1=O	38	.	.	-5.0	-5%
COc1ccc(/C=N/OC/C(O)=C(\C#N)c2nc3ccccc3[nH]2)cc1	-14	-5	-5	-7.5	1%
CCC(=O)NCc1cc(-c2nn(C)c(=O)c3ccccc23)ccc1OC	6	-11	.	8.4	8%
C/C(=N\NC(=O)c1c(C)nc2ccccn12)c1cccc([N+](=O)[O-])c1	-6	1	.	-1.7	-5%

Sorted by heavy-atom count (descending): 3 of the compounds above
SMILES	Mtb bLac sens	Arbovirus anti	YopH PTP inh	RecA intein inh	Mtb H37Rv	others
COc1ccc(N2CCN(C(=O)CN(Cc3ccc(Cl)cc3)S(C)(=O)=O)CC2)cc1	-3	6	-2	-5.0	6%
COc1cccc(Nc2nc(NCC3CCCO3)c3ccccc3n2)c1 (stereo unspecified)	94	-46	-5	15	7%
CCOC(=O)/C(=N/Nc1ccccc1)N1CCCc2ccccc21	-3	3	-35	-2.3	9%

New compounds follow:
SMILES	Mtb bLac sens	Arbovirus anti	YopH PTP inh	RecA intein inh	Mtb H37Rv	others
O=C(CSc1ccc2ccccc2n1)N1CCC(c2noc3ccc(F)cc23)CC1	0	28	-15	23	-2%
O=C(Nc1ccc2nsnc2c1)N1CCCCCC1	-5	-1	-8	-4.9	2%
COc1cc2c(C(=O)NCc3ccc(C)o3)cn(CC(C)C)c(=O)c2cc1OC	-1	0	-39	12	-4%
COc1ccc(C(=O)N2CCCCCC2)cc1OC1CCN(C(C)=O)CC1	?	.	.	-0.2	.
CSc1nc2c(C)c(C)c(C)c(C)c2[nH]1	0	.	.	1.6	17%
CCCCC(Sc1nc(C)c(Cc2ccccc2)c(=O)[nH]1)C(=O)O (stereo unspecified)	6	.	.	0.9	.
N#Cc1ccc(-c2ccc(OCC(=O)NCCCN3CCCC3=O)cc2)cc1	30	-24	.	3.4	11%
Cc1cc2c(Nc3ccc(C(=O)O)cc3)ncnc2s1	1	.	.	-0.7	.
Nc1nc(Cl)cc(-c2ccccc2)n1	4	-8	.	.	3%
Cc1cc(C)n(-c2ccc(C(=O)Nc3cccnc3Cl)cc2)n1	-1	-5	.	1.0	-3%
CC1(c2ccccc2)NC(=O)N(CC(=O)N2CCN(S(=O)(=O)c3cccs3)CC2)C1=O (stereo unspecified)	1	.	.	-1.6	.
S=C(NCc1ccco1)Nc1ccc(Oc2ccccc2)cc1	17	-5	.	9.1	1%
O=C(O)c1ccccc1/C=N/n1c(C2CCCCC2)n[nH]c1=S	-6	.	.	-2.5	.
CCCc1cc(=O)[nH]c(SCC(=O)NC(=O)OCC)n1	8	7	-16	-3.6	-6%
CCC1CCCCN1C(=O)CCNS(=O)(=O)c1ccc2c(c1)oc(=O)n2C (stereo unspecified)	8	.	.	0.6	.
O=C1N/C(=N\N=C\c2cccs2)SC1Cc1ccc(Cl)c(Cl)c1 (stereo unspecified)	28	4	.	-0.8	80%
Cc1ccc(S(=O)(=O)CCC(=O)Nc2nccs2)cc1	-10	9	-14	.	6%
Cc1sc2ncn(CC(=O)Nc3cccc(S(N)(=O)=O)c3)c(=O)c2c1-c1ccccc1	4	.	.	-0.4	3%
CC(C)CNC(=S)NNC(=O)c1nn(C)cc1Cl	2	-5	-15	0.1	-6%
COc1ccc(N2CCN(C3CCCN(C(=O)C4=C(C)OCCO4)C3)CC2)cc1 (stereo unspecified)	-5	.	.	-3.1	.
O=C(C1COc2ccccc2O1)N1CCOCC1 (stereo unspecified)	-14	-4	-33	-2.3	-2%
COCCNC(=O)Cn1nc(-c2ccccc2OC)ccc1=O	-1	3	-15	-2.9	-4%
CCn1cc(C(=O)OCc2ccc(F)cc2)c(=O)c2ccc(C)nc21	0	3	6	-5.0	-2%
CC(=O)c1ccc(NC(=O)c2ccc3nc(-c4ccco4)c(-c4ccco4)nc3c2)cc1	16	0	-13	13	-12%
CCN(CC)CCOC(=O)c1ccc(NC(=O)C2(c3ccccc3)CCCC2)cc1	5	-5	-13	-1.2	-1%

Next records.
SMILES	Mtb bLac sens	Arbovirus anti	YopH PTP inh	RecA intein inh	Mtb H37Rv	others
COc1cc(OC)cc(C(=O)N[C@H](C(=O)OCC(N)=O)C(C)C)c1	-4	3	-22	-1.1	-4%
COc1ccc(CNc2nc3c(c(C(F)(F)F)n2)CCCCC3)cc1	.	-29	-15	.	-10%
COC(=O)CCCC1=CC2=CC(=O)C(C)(OC(=O)c3cccs3)C(=O)C2=CN1c1ccc(OC)cc1 (stereo unspecified)	1	.	.	-3.3	-10%
CCCN(C(=O)c1ccc(OCC(C)C)cc1)c1c(N)n(Cc2ccccc2)c(=O)[nH]c1=O	-7	.	.	-0.4	.
O=C(Nc1nnc(SCc2ccccn2)s1)C1CC(=O)N(c2ccccc2)C1 (stereo unspecified)	-2	8	12	6.2	1%
CNc1nc(-c2ccccc2)cc(C)c1S(C)(=O)=O	-6	0	.	-4.9	3%
CCc1sc(C(=O)N2CCC3(CC2)OCCO3)cc1Br	0	-1	-4	2.3	-1%	Arbovirus anti repeat=-4
CCOc1ccc(C2=Nn3c(nnc3-c3ccccn3)SC2)cc1	93	1	0	3.7	8%
N=C1C(c2ccccc2)=C(O)CN1CCCO	-3	5	.	0.7	1%
COc1cc(NC(=O)c2sc3nc(C)nc(N4CCOCC4)c3c2C)cc(OC)c1OC	17	.	.	8.8	.
CCn1c(SCC(=O)NCc2cccs2)nc2c1c(=O)n(C)c(=O)n2C	-7	7	-19	1.1	1%
COc1cccc(CNC(=O)c2cccc(NC3=NC4CS(=O)(=O)CC4S3)c2)c1 (stereo unspecified)	-1	.	.	-4.2	.
CSc1cccc(NC(=O)CSc2nc3ccccc3o2)c1	98	-7	-45	-0.4	69%
Cc1ccc(C)c(OCC(=O)NCC(c2ccco2)N2CCCCC2)c1 (stereo unspecified)	-3	.	.	3.1	.
O=C(C1CCCO1)N(c1ccc(F)cc1)C1C=CS(=O)(=O)C1 (stereo unspecified)	1	10	.	-1.0	6%
CCN(CC)CCN1C(=O)Cn2c(C)c(C)c3cccc1c32	-4&-6	-8&-2	2	-1.8	-2%&9%
Cc1cccc(OCc2nc(-c3ccc(Br)o3)no2)c1	1	1	.	1.6	-5%
CCCCn1c(N)c(N(CC(C)C)C(=O)c2cccc(S(=O)(=O)N3CCCCCC3)c2)c(=O)[nH]c1=O	?	.	.	0.3	.
